Cruzain inh noDet: inhibitors of Trypanosoma cruzi cruzain without detergent; purified cruzain, Z-FR-AMC fluorescence, no detergent; Potency, µM, without a hit: max response, negative = inhibition, usual class: inhibitors; 2.3% of 200,000 active;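 further: plate controls were enzyme without inhibitor for no effect and buffer without enzyme for full effect; nearly all actives have a fitted effect of over 40% in size; top concentration of the series not given in the record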
Target sequence (P25779 123-467 limits assumed): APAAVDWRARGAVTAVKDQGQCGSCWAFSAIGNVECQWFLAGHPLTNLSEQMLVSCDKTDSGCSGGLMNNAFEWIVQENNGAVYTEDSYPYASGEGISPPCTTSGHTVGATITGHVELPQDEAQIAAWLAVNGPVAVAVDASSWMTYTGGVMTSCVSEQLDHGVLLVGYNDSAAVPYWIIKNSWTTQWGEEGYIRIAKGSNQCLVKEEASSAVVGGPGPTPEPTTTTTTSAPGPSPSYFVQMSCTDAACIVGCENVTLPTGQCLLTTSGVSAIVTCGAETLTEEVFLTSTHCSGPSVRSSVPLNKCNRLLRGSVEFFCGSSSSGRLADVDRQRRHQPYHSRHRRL
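Purified cruzain at 1.5 nM, pre-incubated 15 min with compound at room temperature in 100 mM sodium acetate pH 5.5, 5 mM DTT, 0.00005% Triton X-100. Reaction started with 2 uM Z-FR-AMC; AMC fluorescence increase over 60 s gives rate.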
Cruzain Triton: cruzain (T. cruzi) inhibition with detergent. P25779. purified cruzain, Z-FR-AMC fluorescence, 0.01% Triton. Potency, µM, inactives show max response, negative = inhibition, hits mostly inhibitors. 0.43% of 200,000 active;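 further: plate controls were neutral wells for no effect and buffer without enzyme for full effect; nearly all actives have a fitted effect of over 40% in size; top concentration of the series not given in the record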
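Compounds were screened in titration against cruzain (1.5 nM) with 0.01% Triton X-100 to counter colloidal aggregation. Activity was the AMC fluorescence increase over 60 s after adding 2 uM Z-FR-AMC at pH 5.5.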
SARS PLP yeast: blocks SARS-CoV papain-like protease in a yeast assay; S. cerevisiae expressing SARS-CoV PLpro, growth rescue; control for the full effect not named in the record; Potency, µM (titrated, usually from 32.9 µM), without a hit: at the highest dose activity, positive = growth rescue; 0.19% of 330,000 active; AID 485353; active means well fitted rising curve with a large enough effect; inconclusive means small, poorly fitted or top-dose-only effect; inactive means no such curve, though single readings can be large or run the other way; further: 0% is about no effect; nearly all actives have a fitted effect of over 55% in size; growth read by luminescence after 48 h
LASV entry inh: Lassa virus entry inhibition. AID 540256. Lassa virus pseudotype entry inhibition, cell reporter; control for the full effect not named in the record. Potency, µM (highest dose often 37.9 µM), for the others: at the top dose activity change, negative = inhibition, hits mostly inhibitors. 1.2% of 300,000 active; active means well fitted inhibition curve with a large enough effect; inconclusive means small, poorly fitted or top-dose-only effect, or effect the other way; inactive means flat fitted curve, though single readings scatter; tested in HEK293 cells; further: on the % scale 0 is the no-effect control and ±100 the full control effect; nearly all actives have a fitted effect of over 50% in size; luciferase read-out
NS1 function inh: blocks influenza NS1 protein function. S. cerevisiae slowed by influenza A NS1, growth recovery by OD600. Potency, µM (titrated, usually from 46.1 µM), for inactives: top-dose activity, positive = more growth. 0.4% of 270,000 active; active means well fitted rising curve with a large enough effect; inconclusive means small, poorly fitted or top-dose-only effect; inactive means no such curve, though single readings can be large or run the other way; further: nearly all actives have a fitted effect of over 50% in size
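Recovery from NS1-induced slow growth read by OD600 in budding yeast switched to galactose assay medium (pH 6.0, -URA) at 1:100 dilution. Compound 23 nl per well; the matching strain lacking NS1 serves as control.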
RE007 growth inh: less growth of the S. pombe RE007 Vpr strain. S. pombe RE007 Vpr strain, BacTiter-Glo ATP luminescence, 24 h; control for the full effect not named in the record. AID 651644. 0.21% of 360,000 active. Potency, µM (top dose mostly 92.2 µM), without a hit: top-dose activity change, negative = less growth; active = well fitted falling curve with a large enough effect; inconclusive = small, poorly fitted or top-dose-only effect; inactive = no such curve, though single readings can be large or run the other way;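 further: on the % scale 0 is the no-effect control and ±100 the full control effect; nearly all actives have a fitted effect of over 50% in size; the assay follows cell death caused by Vpr and the record does not say whether a fall means rescue or toxicity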
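Fission yeast RE007 carrying one integrated HIV-1 vpr copy, seeded at OD 0.01 in PMG+AL medium with 23 nL pinned compound. Grown 24 h at 30 degrees; viability read by BacTiter-Glo luminescence after 5 min.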
StopGo reporter: lowers the luciferase signal of an FMDV 2A StopGo reporter. 1.2% of 410,000 active. Potency, µM (doses to about 57.9 µM), for inactives: at the top dose signal change, negative = less light. human cells with a luciferase reporter of 2A StopGo recoding; control for the full effect not named in the record; active = well fitted falling curve with a large enough effect; inconclusive = small, poorly fitted or top-dose-only effect; inactive = no such curve, though single readings can be large or run the other way; tested in HEK293T cells; further: on the % scale 0 is the no-effect control and ±100 the full control effect; nearly all actives have a fitted effect of over 45% in size; luciferase light after 4 h
Marburg entry inh: blocks Marburg virus binding to or entry into cells | Marburg virus pseudotyped entry inhibition, cell reporter; control for the full effect not named in the record; about a third of the inactives were read at about 46 µM | Potency, µM (doses to about 37.8 µM), inactives show at the highest dose activity change, negative = inhibition, actives largely listed as inhibitors | 1.8% of 300,000 active; active = well fitted inhibition curve with a large enough effect; inconclusive = small, poorly fitted or top-dose-only effect, or effect the other way; inactive = flat fitted curve, though single readings scatter; tested in HEK293 cells; about a fifth of its hits are not listed in these tables; further: on the % scale 0 is the no-effect control and ±100 the full control effect; luciferase read-out
An asterisk follows results filed as active; u = inconclusive; x = not tested or not shown; & = joins results of further samples; [ ] = another dose, or the depositor's remark. Unless noted, the call rests on the fitted dose curve; in most records, active means well fitted curve in the direction sought with a large enough effect; inconclusive means small, poorly fitted or top-dose-only effect, or another doubt; inactive means no such curve, though single readings can be large; an effect the other way counts as inactive or inconclusive. Potency means the concentration at half of the fitted maximal effect.

SMILES	Cruzain inh noDet	Cruzain Triton	SARS PLP yeast	LASV entry inh	NS1 function inh	RE007 growth inh	StopGo reporter	Marburg entry inh
CCCCNC(=O)N1CCc2ccccc2C1	6.0%	0.1%	3.16µM*	10.1%	-9.7%	-6.2%	31.0%[activator]	40.5%
COCCN(C(=O)c1snc(C(N)=O)c1N)C(C(=O)NC1CCCCC1)c1ccc(N(C)C)cc1 (stereo not given)	x	x	-2.9%	x	-19.8%	4.0%	5.0%	x
Cc1cc(/C=C(\C#N)C(=O)NC2CCCCCC2)c(C)[nH]1	3.9%	-5.1%	12.6µM*	-4.1%	-0.8%	0.2%	52.9%[activator]	u
COc1ccc(C(=O)CSc2nnc(-c3cc4ccccc4cc3O)n2Cc2ccco2)cc1	u	-7.4%	0.1%	u	4.2%	-0.2%	u	-9.6%&-9.6%
O=C(N/N=C\c1ccc[nH]1)c1cncc(Br)c1	x	x	-1.3%	x	4.1%	15.1%	2.1%	x
Cc1cc(C)n(CCNC(=O)C2CCC(=O)N(Cc3ccc(Cl)cc3)C2)n1 (stereo not given)	x	x	-0.7%	1.5%[46.1 µM]	4.0%	1.1%	4.1%	-11.3%[46.1 µM]
COc1ccc(NC(=O)c2ccco2)c(NC(=O)c2ccc([N+](=O)[O-])cc2)c1	x	x	1.9%	x	8.2%	-9.9%	u	x
COc1cccc2c1SCc1ccccc1C2CC(N)=O (stereo not given)	x	x	x	-8.9%[46.1 µM]	x	1.7%	-1.2%	-12.6%[46.1 µM]
COc1cc(NS(=O)(=O)c2cc3c(cc2C)N(C)CCO3)cc(OC)c1OC	9.4%	-1.8%	x	10.8%[46.1 µM]	x	x	57.4%[activator]	x
CCCCn1c(CNC(=O)C23CC4CC(CC(C4)C2)C3)nnc1SCC(=O)Nc1nnc(C)s1	u	-2.9%	4.2%	x	19.4%	-3.7%	-29.0%	-5.3%
Cc1ccc(C(=O)NCC(=O)OCC(=O)Nc2ccc(Cl)cc2C(F)(F)F)cc1C	u	14.1µM*	-10.8%	0.9%	5.7%	-6.4%	-12.4%	-0.1%
Cc1ccc(N2CC(=O)N(c3ccc(C)cc3)CC2=O)cc1	x	x	2.1%	5.5%	4.6%	0.1%	-16.0%	2.6%
N#Cc1nc(Cc2ccccc2)oc1N1CCC(Cc2ccccc2)CC1	-4.1%	1.0%	1.5%	7.08µM*	-3.6%	4.2%	-5.1%	-17.9%
Cc1cccc(C(=O)NCC(=O)N2CCN(S(=O)(=O)/C=C/c3ccccc3)CC2)c1	x	x	1.6%	0.7%	x	17.7%	-16.1%	5.7%
COc1cc(NC(=O)c2ccccc2)c(OC)cc1NC(=O)CN1CCN(c2ccccn2)CC1	1.2%	-7.5%	1.8%	u	-40.4%	-8.9%	u	u
COc1ccccc1-c1nnc2n1N=C(C)CS2	1.2%	1.9%	7.9%	4.1%	6.7%	1.1%	-14.6%	2.0%
CCOC(=O)C1=C(CC)Nc2ccccc2N=C1NC(=O)Nc1ccccc1OC	7.0%	4.3%	3.4%	7.8%	4.7%	-12.1%	-3.3%	4.4%&4.4%
O=C(c1cc([N+](=O)[O-])cc([N+](=O)[O-])c1)N1CCN(C(=O)c2ccco2)CC1	x	x	-1.8%	x	5.4%	5.1%	-7.0%	x
COc1cc(S(=O)(=O)N(Cc2ccc(C)cc2)Cc2ccco2)ccc1-n1cnnn1	u	-3.2%	1.2%	u	-6.8%	9.7%	x	-9.6%
Cn1c(SCC(=O)NCc2ccc3c(c2)OCO3)nnc1-c1cc2ccccc2cc1O	-6.3%	0.5%	-2.4%	u	-22.9%	0.7%[3.69 µM]	-3.8%	u
CCOc1ccc(CC(=O)Nc2c(C(N)=O)oc3ccc(Br)cc23)cc1OCC	u	3.8%	6.9%	x	-39.1%	13.9%	-26.0%	-0.2%
COc1ccc2[nH]c(C)c(CN3CCCCC3)c(=O)c2c1	-7.9%	1.2%	3.6%	-0.5%	3.9%	-2.4%	x	-17.0%
O=C(Oc1ccc(Br)cc1)C1CC(=O)N(c2ccc(F)cc2)C1 (stereo not given)	9.6%	-1.0%	-5.7%	13.3%	-55.7%	-7.7%	x	-15.7%
Cc1ccc(CNCC2CCCO2)s1 (stereo not given)	-13.5%	7.7%	20.5%	16.8%	6.8%	-4.9%	1.3%	12.9%[46.1 µM]
COc1ccccc1NC(=O)N1CCCC(c2nc3c(nnn3Cc3ccc(C)cc3)c(=O)[nH]2)C1 (stereo not given)	u	0.3%	15.3%	-4.9%	2.2%	-5.0%	-12.6%	-2.6%

Overlap with the part before: five compounds, then new ones.
SMILES	Cruzain inh noDet	Cruzain Triton	SARS PLP yeast	LASV entry inh	NS1 function inh	RE007 growth inh	StopGo reporter	Marburg entry inh
CCOc1ccc(CC(=O)Nc2c(C(N)=O)oc3ccc(Br)cc23)cc1OCC	u	3.8%	6.9%	x	-39.1%	13.9%	-26.0%	-0.2%
COc1ccc2[nH]c(C)c(CN3CCCCC3)c(=O)c2c1	-7.9%	1.2%	3.6%	-0.5%	3.9%	-2.4%	x	-17.0%
O=C(Oc1ccc(Br)cc1)C1CC(=O)N(c2ccc(F)cc2)C1 (stereo not given)	9.6%	-1.0%	-5.7%	13.3%	-55.7%	-7.7%	x	-15.7%
Cc1ccc(CNCC2CCCO2)s1 (stereo not given)	-13.5%	7.7%	20.5%	16.8%	6.8%	-4.9%	1.3%	12.9%[46.1 µM]
COc1ccccc1NC(=O)N1CCCC(c2nc3c(nnn3Cc3ccc(C)cc3)c(=O)[nH]2)C1 (stereo not given)	u	0.3%	15.3%	-4.9%	2.2%	-5.0%	-12.6%	-2.6%
Cc1ccc(C(=O)NCC(=O)OCC(=O)NCC(F)(F)F)cc1	x	x	-2.5%	x	x	0.1%	-9.3%	-3.9%[46.1 µM]
CC(=O)N1CCN(c2ccc(NC(=O)c3ccc(C)c([N+](=O)[O-])c3)cc2)CC1	x	x	-1.3%	-6.8%	-3.8%	3.6%	-21.0%	-15.9%
CCc1c(C)sc(NC(=O)CSc2nc3c(c(C(F)(F)F)n2)CCc2ccccc2-3)c1C#N	3.98µM*	-3.7%	1.7%	-10.4%	11.6%	13.4%	22.5%	u
COc1ccc(CNc2ccncc2)c(OC)c1OC	x	x	x	1.2%[46.1 µM]	x	-19.1%	u	-4.0%[46.1 µM]
CCn1c(C)nc2cc(C(=O)NNS(=O)(=O)c3ccc(C)cc3C)ccc21	9.4%	-2.6%	-6.4%	-5.7%	-59.4%	-9.4%	7.8%	4.8%
C=CCN(CC=C)CCOc1cccc2ccccc12	1.0%	-2.2%	-3.1%	2.8%	-15.2%	-6.9%	-18.7%	u
O=C(c1ccco1)N1CCN(C2CC(=O)N(c3ccc(C(F)(F)F)cc3)C2=O)CC1 (stereo not given)	x	x	-13.7%	-3.7%	11.8%	u	-14.8%	5.1%
CCOC(=O)Cc1nnc(NC(=O)C(CC)Sc2nc(C)cc(C)n2)s1 (stereo not given)	-1.8%	1.8%	3.0%	x	9.4%	-8.4%	-28.9%	x
CCOc1ccccc1C(=O)Nc1cc(OC)ccc1OC	11.5%	-3.9%	-8.7%	2.3%	-63.1%	-4.6%	-13.5%	u
Cc1cccc(NC(=O)CN(C)S(=O)(=O)c2cnc[nH]2)c1	-5.0%	5.9%	6.0%	-11.1%	2.0%	-2.6%	-9.0%	-1.1%
Cc1ccc(NC(=O)CCCn2c(=O)c3cccn3c3cccnc32)cc1C	-11.6%	-1.9%	x	-2.0%[46.1 µM]	x	x	-12.7%	x
Cc1ccc(NC(=O)C(OC(=O)c2ccccc2Cl)c2ccccc2)cc1Cl (stereo not given)	u	-0.3%	7.2%	-10.3%	7.9%	-3.9%	13.1%	u
O=[N+]([O-])c1ccccc1/C=N/NC1=NS(=O)(=O)c2ccccc21	x	x	-0.5%	17.3%[46.1 µM]	x	-14.0%	9.1%	0.1%[46.1 µM]
COC(=O)c1ccccc1NC(=S)N(Cc1ccc2c(c1)OCO2)Cc1cc2cc(OC)ccc2[nH]c1=O	10µM*	-9.9%	u	u	22.1%	-5.9%	-11.3%	u
CCOP(=O)(NC(c1ccccc1)c1nc2ccccc2[nH]c1=O)OCC (stereo not given)	x	x	1.4%	11.6%[46.1 µM]	5.7%	-1.2%	0.2%	u
CC(O)CN(C)CC/C=C1/c2ccccc2CSc2ccccc21 (stereo not given)	-5.2%	-2.3%	-12.5%	u	-2.4%	-11.8%	-18.7%	u
Nc1nnc(Cc2ccc(F)cc2)s1	x	x	-0.4%	x	-0.8%	-5.3%	11.1%	x
Cc1ccc(S(=O)(=O)c2nnn3c2nc(NCc2ccccc2Cl)c2sccc23)cc1	5.5%	0.2%	x	-3.3%[46.1 µM]	x	x	-12.9%	x
Cc1ccc(S(=O)(=O)NCCc2sc3nc(-c4ccccc4)nn3c2C)cc1C	10.4%	-6.1%	x	-16.5%[46.1 µM]	x	x	18.2%	x
O=C1c2ccccc2C(Nc2ccccc2)N1c1ccc(Cl)cn1 (stereo not given)	-10.0%	-3.2%	6.2%	x	2.9%	0.5%	u	x
CCOc1ccc(NS(=O)(=O)c2ccc3[nH]c4c(c3c2)CCCCC4)cc1	-15.2%	-13.9%	x	-21.2%[46.1 µM]	x	x	-0.3%	x
Cc1nn(C)c(Cl)c1CN1CCN(CC(C)C)C(CCO)C1 (stereo not given)	x	x	0.6%	-3.8%[46.1 µM]	-1.6%	-6.5%	12.3%	u
Cc1ccc(CCNC(=O)CCn2nc(-c3ccc(C)cc3)ccc2=O)cc1	u	-0.2%	x	u	x	x	-9.7%	x
Cc1nn(Cc2ccc(C(=O)NN)o2)c(C)c1Cl	x	x	0.8%	x	5.3%	-0.5%	-18.9%	x
Cc1sc(NC(=S)NC(=O)C2CCCCC2)c(C(N)=O)c1C	u	-2.7%	-18.2%	5.1%	18.3%	-5.3%	-4.1%	13.2%
CCn1nc(C)cc1C(=O)N1CCCC(C(=O)c2ccc3ccccc3c2)C1 (stereo not given)	x	x	-0.2%	x	-5.3%	3.4%	u	x

Source: PubChem
